NPYLR7 agonist: activates Aedes aegypti NPYLR7 receptor; HEK293T NPYLR7/Galpha15, GCaMP6s calcium fluorescence; activation, % at 10 µM; 0.15% of 270,000 active; AID 1259423; in the data active = activation above about 40%;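 note: 0% = vehicle and 100% = reference agonist at the receptor; some compounds past the cut are filed as inactive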
NPYLR7 agonist max-min: also measured in NPYLR7 agonist; calls as there; activation, %; measured here: Max-Min RFU normalised activation; some inactives read as strong as hits;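 span of the calcium signal over five minutes; 0% = vehicle and 100% = native peptide agonist; compound fluorescence can raise it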
Active calls of the source: *; & = joins results of further samples. These rows are one share of the data. The share of hits here may be higher or lower than overall.

SMILES	NPYLR7 agonist	NPYLR7 agonist max-min
COCc1cc(C)nc(OCC(=O)N/N=C\c2ccc(-c3cccc([N+](=O)[O-])c3)o2)c1C#N	-10	-16
COc1ccccc1C(C)N(C)C(=O)CN1CC(n2cc(C)cn2)C1 (stereo not drawn)	-5	-4
COc1ccc(/C=C/C(=O)Nc2cc(C)nn2-c2nc3c(c(=O)[nH]2)CCC3)cc1OC	11	3
Cc1ccccc1C(=O)N[C@@H]1CCCCC1NC(=O)C1CCN(C(=O)c2ccc(C(C)(C)C)cc2)CC1 (stereo partly drawn)	0	2
CN(Cc1nc2ccccc2c(=O)[nH]1)CC1COc2ccccc2O1 (stereo not drawn)	0	2
CC(C)c1nnsc1CN1CCCC(O)(CO)C1 (stereo not drawn)	-4	-8
COc1ccccc1Cn1c(C)c(C(=O)NCc2cccc(C)c2)sc1=O	7	2
CN1C(=CC=NNc2ccc([N+](=O)[O-])cc2[N+](=O)[O-])C(C)(C)c2ccccc21	-2	-11
Cc1cnccc1N1CCCN(Cc2ccc(C#CC(C)(C)O)s2)CC1	7	2
Cc1[nH]c2ccccc2c1C1=NNC(=NCc2ccc3c(c2)OCO3)SC1	12	9
COC(=O)NC1CCN(c2ccccc2C(=O)N2CCN(C(=O)C3CCCO3)CC2)CC1 (stereo not drawn)	3	3
COc1ccc(CNC(=O)c2cc(N3CCCC(C)C3)nc3ccccc23)cc1OC (stereo not drawn)	40	31
Cc1cc(F)cc(-c2c(-c3ccccc3)ncn2CCOCCO)c1	-8	-15
O=C(Nc1cc(-c2onc3c2CCCC3)cc(C(F)(F)F)c1)c1cccc(OC(F)(F)F)c1	-4	3
CC1C(=O)N(c2ccc(Oc3ccccc3)cc2)CCN1C(=O)c1ccc(C(F)(F)F)cc1 (stereo not drawn)	0	5
CCOC(=O)c1ccc(Nc2nc(-c3cc4cc([N+](=O)[O-])ccc4oc3=O)cs2)cc1	5	14
CCCCN(C)C(=O)c1sc(=O)n(Cc2ccccc2C#N)c1C	10	5
c1ncn(CCCc2nn3c(C4CCCC4)nnc3s2)n1	2	-8
O=C(Nc1ccc(Br)cc1)Nc1ccc(N2CCc3ccccc3C2)c(C(=O)NCCN2CCOCC2)c1	12	17
Cn1c(SCN2C(=O)c3ccccc3C2=O)nc2ccccc2c1=O	1	1
CCCCCCn1c(C)c(C)n2c3c(=O)n(CC(N)=O)c(=O)n(C)c3nc12	-2	-6
C=CCOC1C[C@](OCc2ccccc2)(C(=O)NCCOC)C[C@@H](O)[C@H]1O (stereo partly drawn)	28	33
Cc1nc(C)c(C(C)NC(=O)Cc2ccc(Cl)cc2Cl)s1 (stereo not drawn)	-1	-2
CC(C)COC(=NCCCc1ccccc1)NC(=O)c1ccc2c(c1)OCO2	-2	1

Pulled by compound from the list above (4):
SMILES	NPYLR7 agonist	NPYLR7 agonist max-min
O=C(Nc1ccc(Br)cc1)Nc1ccc(N2CCc3ccccc3C2)c(C(=O)NCCN2CCOCC2)c1	12	17
O=C(Nc1cc(-c2onc3c2CCCC3)cc(C(F)(F)F)c1)c1cccc(OC(F)(F)F)c1	-4	3
CC(C)COC(=NCCCc1ccccc1)NC(=O)c1ccc2c(c1)OCO2	-2	1
Cc1cc(F)cc(-c2c(-c3ccccc3)ncn2CCOCCO)c1	-8	-15

Further entries.
SMILES	NPYLR7 agonist	NPYLR7 agonist max-min
COC(=O)C(C)N(C(=O)c1cc(F)ccc1C)C1CC1 (stereo not drawn)	9	8
CC1CC(C)CN(CC(C)NC(=O)c2ncccn2)C1 (stereo not drawn)	1	0
CCCN(C(=O)/C=C/c1ccccc1)[C@@H]1CCCC[C@H]1O	7	4
O=C(c1snc2c(=O)n(Cc3ccccc3)c(=O)[nH]c12)N1CCSCC1	65*	67*
Cc1ccsc1[C@@H]1CCN(C(=O)CN(C)Cc2cccnc2)C[C@H]1O	-2	19
CCOc1ccc(C(=O)N(C)CCOc2ccc(C)cc2Cl)o1	-1	-5
O=C(Nc1ccccc1C(F)(F)F)c1cc(=S)[nH]c2ccccc12	-4	-8
Cc1ccc(Cc2nnc(NC(=O)CCc3cscn3)s2)cc1	10	8
COc1ccc(Nc2nccc3c2cc(-c2cnn(C)c2)n3C)cc1	-12	-16
O=C1NCC2(CCN(c3nccc(N4CCCC(O)C4)n3)CC2)O1 (stereo not drawn)	9	7
Nc1cc(-c2ccc(Cl)c(Cl)c2)nn1-c1ccc(C(=O)Nc2ccccc2Nc2ccccc2)cc1	-8	-12
O=C(Nc1ccc2c(c1)CCC2)c1ccc(=O)n(Cc2ccccc2)n1	5	2
C=CCOC1C[C@](OCc2ccc(F)cc2)(C(=O)NCCN(C)C)C[C@H]2OC(C)(C)O[C@@H]12 (stereo partly drawn)	1	13
COc1ccccc1CN(Cc1nc2ccccc2n1C)C1CC1	15	12
Cn1c(CC(=O)N/N=C2\CCSc3ccc(F)cc32)nc2ccccc21	-3	-4
O=C(CN1CCN(Cc2ccc3c(c2)CCO3)CC1)Nc1ccccc1	3	3
OC(c1ccc(Cl)cc1)c1ccc(OC(F)F)cc1 (stereo not drawn)	-2&6	-2&0
CCc1cc(-c2nccn2-c2ccc(-c3ccn[nH]3)cc2)on1	2	-1
CCC(C)CN(CC(=O)N(Cc1ccccc1)Cc1cccs1)C(=O)Nc1ccc(C(F)(F)F)cc1 (stereo not drawn)	-9	-15
COc1ccc(Nc2nc(NCc3ccc4c(c3)OCO4)nc3[nH]ncc23)cc1	4	3
Cc1ccccc1CN1CC(c2nc(-c3ccccn3)no2)CC1=O (stereo not drawn)	-3	-7
CCC(O)CN1CCN(c2ccc(C3CCCC3)cc2)CC1 (stereo not drawn)	-7	-9
CCc1nc2c(OCc3cc(Cl)cc(Cl)c3)cccn2c1N(C)C(=O)C(C)C	7	10
O=C(O)CC(C(=O)O)N1C(=O)CSC1=S (stereo not drawn)	0	0

Five structures already listed, arranged by heavy-atom count, ascending:
SMILES	NPYLR7 agonist	NPYLR7 agonist max-min
OC(c1ccc(Cl)cc1)c1ccc(OC(F)F)cc1 (stereo not drawn)	-2&6	-2&0
CCC(O)CN1CCN(c2ccc(C3CCCC3)cc2)CC1 (stereo not drawn)	-7	-9
Cn1c(CC(=O)N/N=C2\CCSc3ccc(F)cc32)nc2ccccc21	-3	-4
COc1ccc(Nc2nc(NCc3ccc4c(c3)OCO4)nc3[nH]ncc23)cc1	4	3
C=CCOC1C[C@](OCc2ccc(F)cc2)(C(=O)NCCN(C)C)C[C@H]2OC(C)(C)O[C@@H]12 (stereo partly drawn)	1	13

Following part.
SMILES	NPYLR7 agonist	NPYLR7 agonist max-min
O=S(CCn1cccn1)Cc1ccc(C(F)(F)F)cc1 (stereo not drawn)	1	-2
CCOc1ccc2nc(N3CCC(N4CCC[C@H]4C(=O)OC)CC3)nc(C)c2c1	5	2
CC(C)NC(=S)NN=C1CCc2ccccc21	-1	-6
Cc1[nH]cnc1-c1nccn1CCc1c(C)n2c3c(cccc13)CCC2	0	-2
CCCCn1c(CN(C)CC)cnc1S(=O)(=O)CCCC(C)C	9	6
Cc1cccc(C(=O)NC(C(=O)NCc2ccco2)C2CCN(C(=O)c3ccc4c(c3)OCO4)CC2)c1 (stereo not drawn)	-1	6
Cc1ccc(Cl)cc1-n1nnc(C(=O)Nc2ccccc2C#N)c1C	4	0
COc1cccc(C(=O)NCc2nnc(SCC(=O)N3CCc4ccccc43)n2-c2ccc(F)cc2)c1	-5	0
CCCCn1nnnc1CS(=O)(=O)C(C)C(=O)Nc1ccc(C)cc1 (stereo not drawn)	8	5
CC(C)Cc1nc(CN(C)C(=O)c2cc(C(C)C)on2)no1	6	4
CCN1N=C(C(F)(F)F)C(=Cc2cnn(-c3ccccc3)c2)C1=O	7	5
CC(C)=CC(=O)NC1CC2CCC(C1)N2CC1CCCO1 (stereo not drawn)	12	15
Cc1nc(N2CCCCC2)ncc1C(=O)N1CC[C@H](O)[C@@H](O)C1	4	0
Cc1cc(Cl)ccc1OCCCC(=O)NCCc1nc2ccccc2[nH]1	9	6
CCc1nc2ccc(C(=O)Nc3ccc(C(N)=O)cc3)cn2c1N(C)CCN1CCOCC1	23	21
Cc1ccc(F)c(NC(=O)C(=O)N(C)Cc2ccccc2Br)c1	0	-1
O=C(CSc1nc(Cl)cc(N2CCN(c3ccccc3F)CC2)n1)NCc1cccc(C(F)(F)F)c1	2	15
CC(CC(=O)NC1CCCC1)=NNC(=O)C1CCCCC1	6	4
N#CC1C(=N)OC2=C(C(=O)CCC2)C1c1ccc(O)cc1 (stereo not drawn)	7	-1
CN(C)C(=O)CN(C)C(=O)c1ccnc(OCc2ccccc2)c1	4	4
CCCOC(=NCc1ccco1)NC(=O)c1ccc(OC)cc1	0	0
COc1ccc(-n2c(SCc3ccccc3C)nc3c(c2=O)SCC3)cc1	7	5
COc1ccc(-n2nc(C)nc2-c2cccc(N)c2)cc1	18	2
COCCc1ncc(CN2CCC3(CCCN(CC4CCC4)C3)C2)cn1 (stereo not drawn)	0	-1
CCC(C)NC(=O)c1cc(-c2ccc(C)o2)nc2cc(OC)c(OC)cc12 (stereo not drawn)	-5	-8
O=C1/C(=C/c2ccc(-c3ccc(Br)cc3)o2)C=C(c2ccccc2)N1c1cccc2ccccc12	1	13
COc1cccc(CNC(=O)CSc2ccc(-c3sc(C)nc3C)nn2)c1	-6	-14
CC(C)(C#N)NC(=O)Cc1ccc(C(F)(F)F)cc1	0	0
CCOC(=O)N1CCN(C(=O)CSc2nc(Cl)cc(N3CCN(C(=O)C4CC4)C(C)C3)n2)CC1 (stereo not drawn)	-3	12
C=CCOCC(O)CN(Cc1ccc(F)cc1)Cc1cccn1C (stereo not drawn)	21	32
FC(F)(F)c1nc(NCC2CCCO2)nc2c1CCCCC2 (stereo not drawn)	1	0
COc1cccc(NC(=O)CN2CN(c3ccccc3)C3(CCN(C(=O)COc4ccc(Cl)cc4)CC3)C2=O)c1	18	23
Cc1cccn2c(=O)c3cc(C(=O)N4COCC4(C)C)n(C)c3nc12	5&4	8&5
O=C(c1cccc2nccnc12)N1CCOC(c2ccc(Cl)cc2)C1 (stereo not drawn)	6	5
CC(=O)NC(C)C1=CCCN(CC(=O)Nc2ccc(Cl)c(C)c2)C1 (stereo not drawn)	2	0
COc1ccc(-c2cnc3ncnn3c2N2CCCN(S(=O)(=O)c3ccc(F)cc3F)CC2)cc1	28	22
CCc1cccc(CC)c1-n1c(CNC(=O)Cc2ccccc2)nnc1SCC(=O)Nc1ccc(OC)cc1	-7	-2
COc1cccc(Cn2nccc2NC(=O)c2ccccc2)c1OC	9	4
CCOC(=O)c1ccc(NC(=O)CSc2nnc(CNC(=O)c3ccco3)n2-c2ccc(OCC)cc2)cc1	1	-2
COc1cccc(Cc2nsc(N3CCCN(C(=O)Nc4ccc(C)cc4C)CC3)n2)c1	1	20
Cn1nc(C(=O)O)c2c1CCN(C(=O)C1(C)CCCO1)C2 (stereo not drawn)	0	1
CCC(C(=O)N(Cc1cc(NC(=O)c2ccccc2Cl)ccc1N(C)C)C(C)C)c1ccccc1 (stereo not drawn)	13	18
Cn1nc(CNC(=O)C2CCCN(C(N)=O)C2)c2c(Cl)cccc21 (stereo not drawn)	10&2	10&-2
CN(C(=O)Cn1cnc2c(nnn2C)c1=O)c1ccccc1	1	11
CCCCN(C)c1c(N2CCN(C(=O)OCC)CC2)c(=O)c1=O	2	3
COc1ccccc1OCc1nc(C(=O)NCc2ccco2)cs1	4	9
O=C(Nc1cccc(C2OC(=O)N(Cc3ccc(F)cc3)C2C(=O)O)c1)c1ccccc1 (stereo not drawn)	18	12
CCCn1cc(NCc2ccc(F)cc2)cn1	15	10
COc1ccccc1NC(=O)c1c(N)c(C(=O)c2ccc3c(c2)CCCC3)n2ccccc12	-2	-8
CC(C)C(NC(=O)Cn1cnc2ccccc2c1=O)c1ccc(Cl)cc1 (stereo not drawn)	4	-2
Cc1ccc(Cl)c(C(=O)N2CCc3c(sc4[nH]c(=O)n(C5CCCCC5)c(=O)c34)C2)c1	4	1
CCN(CC(=O)c1c(C)c(C(=O)OC)n(CC)c1C)C(=O)c1ccc(OC)cc1OC	-7	-2
COc1ccc(C(CC(=O)O)NC(=O)c2ccc(C)nc2)cc1OC (stereo not drawn)	0	0
CC(C)(C)c1cc(NC(=O)c2ccccc2)n(C2CCS(=O)(=O)C2)n1 (stereo not drawn)	2	0
COc1ccc(OC)c(CC(=O)NC2CC3CCC(C2)N3Cc2ccoc2)c1 (stereo not drawn)	-1	-14
CNc1ccc(-c2ccc(S(C)(=O)=O)cc2)cn1	4	2
Cn1cc(C(CC(=O)NCCc2ccc(Cl)cc2Cl)c2ccc(Cl)cc2)c2ccccc21 (stereo not drawn)	-1	5
CCN(CC1CN(Cc2ccn(C)c(=O)c2)CCO1)c1cccnn1 (stereo not drawn)	7	11
Cc1cccc(-c2cnc(-c3ccncc3)nc2C2CCN(C(=O)c3cc(CC(C)C)on3)CC2)c1	21	6
Cc1cccc(CNC(=O)N2CC(C)(C)SC23C(=O)N(Cc2ccc(F)cc2)c2ccccc23)c1 (stereo not drawn)	8	13

In another format: entries from further up
> CCN(CC(=O)c1c(C)c(C(=O)OC)n(CC)c1C)C(=O)c1ccc(OC)cc1OC
  NPYLR7 agonist: -7
  NPYLR7 agonist max-min: -2

> COc1ccc(C(CC(=O)O)NC(=O)c2ccc(C)nc2)cc1OC (stereo not drawn)
  NPYLR7 agonist: 0
  NPYLR7 agonist max-min: 0

> CC(C)(C)c1cc(NC(=O)c2ccccc2)n(C2CCS(=O)(=O)C2)n1 (stereo not drawn)
  NPYLR7 agonist: 2
  NPYLR7 agonist max-min: 0

> COc1ccc(OC)c(CC(=O)NC2CC3CCC(C2)N3Cc2ccoc2)c1 (stereo not drawn)
  NPYLR7 agonist: -1
  NPYLR7 agonist max-min: -14

Next results.
SMILES	NPYLR7 agonist	NPYLR7 agonist max-min
O=C(CSc1nnc2[nH]c(=O)cc(-c3ccccc3)n12)N1CCCC1	-3	3
CN(C)c1ncc(-c2nccn2CCc2ccccc2Cl)cn1	-3	-9
COc1ccc(C(=O)N2CCN(C(C)c3ccccc3)CC2)c(OC)c1 (stereo not drawn)	-2	-1
O=C(CC1SC(=NCc2ccco2)NC1=O)Nc1ccc(OC(F)(F)F)cc1 (stereo not drawn)	5	4
CCc1nc2n(n1)C(=O)C(C(c1cccc(F)c1)N1CCN(CCO)CC1)S2 (stereo not drawn)	-2	-8

Screening data deposited in PubChem BioAssay by Fisher Drug Discovery Resource Center.
